Screening data: PubChem BioAssay, several laboratories
Smad3 FoxH1 inh = inhibitors of human Smad3 transcription factor binding. P84022. TR-FRET Smad3/Dy647-FoxH1 peptide binding, europium anti-His. inhibition, % at 25 µM. 88,000 tested, 0.29% active;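 active = compounds that reduce the energy-transfer binding signal between the protein and its labelled peptide by more than half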;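 note: 0% = Smad3 plus labelled peptide maximal FRET and 100% = peptide-only background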
Target sequence (P84022 whole entry, looked up): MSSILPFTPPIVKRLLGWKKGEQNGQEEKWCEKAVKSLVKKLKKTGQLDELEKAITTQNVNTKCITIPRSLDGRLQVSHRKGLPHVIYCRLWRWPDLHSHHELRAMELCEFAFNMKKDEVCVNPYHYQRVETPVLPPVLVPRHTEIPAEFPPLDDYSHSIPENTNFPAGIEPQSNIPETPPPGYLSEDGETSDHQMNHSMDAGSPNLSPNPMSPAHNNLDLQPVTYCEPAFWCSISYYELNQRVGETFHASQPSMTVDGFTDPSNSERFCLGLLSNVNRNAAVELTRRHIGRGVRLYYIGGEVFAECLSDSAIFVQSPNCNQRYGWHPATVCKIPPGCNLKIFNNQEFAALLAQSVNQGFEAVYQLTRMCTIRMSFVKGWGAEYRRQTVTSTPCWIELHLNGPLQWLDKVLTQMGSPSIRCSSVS
ERa coact inh = ER-alpha (human) coactivator binding inhibition; 86,000 tested, 1.7% active; P03372; AID 629; TR-FRET ER-alpha LBD / SRC-1 peptide, estradiol-bound; inhibition, % at 25.6 µM; in the data active = inhibition above about 50%;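 note: 0% = receptor plus peptide control and 100% = peptide only without receptor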
Fibroblast inh = blocks proliferation of human lung fibroblasts | 85,000 tested, 1.1% active | LL 47 human lung fibroblast viability, ATP luminescence; active compounds read low | viability, % at 10 µM;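 active = viability at or below 50% in the single dose screen; inactive = viability above 50%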;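 note: compound exposure lasted 72 h before the ATP readout; 100% = median luminescence of untreated cell-only wells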
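Assay system: human lung fibroblast line LL 47, low passage. Input: 1,150 fibroblasts seeded per well. Times: overnight cell rest, 72 h compound treatment at 37 °C. Evaluation: % viability of median cell-only signal. Technique: luminescent ATP detection, CellTiter-Glo. Control set: cell-only wells, no compound.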
ERa coact pot = ER-alpha (human) coactivator binding potentiation. TR-FRET ERalpha-LBD/SRC-Cy5 coactivator binding, 2 h; 100 = basal binding, no effect. coactivator binding (% of control), % at 25.6 µM. AID 639. 86,000 tested, 1.3% active. P03372; in the data active = activity above about 200%;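 note: binding measured in presence of low estradiol as agonist stimulus; 0% = peptide alone without receptor and 100% = receptor with peptide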
HUVEC prolif 384 = inhibitors of human endothelial cell proliferation. HUVEC proliferation, CellTiter-Glo luminescence, 72 h; active compounds read low. viability, % at 10 µM (by protocol). 86,000 tested, 1.1% active;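 active = viability at or below 30%; inactive = viability above 30%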;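 note: 100% = median luminescence of DMSO-only cell control wells on each plate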
* hit, by the source's call; [ ] = another dose, or the depositor's remark. This is a subset; the hit share may differ from the screen's.

SMILES	Smad3 FoxH1 inh	ERa coact inh	Fibroblast inh	ERa coact pot	HUVEC prolif 384
Cc1cnc(NC(=O)C2=C(O)c3ccccc3S(=O)(=O)N2C)s1	3	-3	98	128	105
O=C(Cc1ccc(Cl)cc1)Nc1ccc(N2CCN(C(=O)c3ccco3)CC2)cc1	3[fluorescence artefact?]	67*[fluorescence artefact?]	94	128	78
C[C@H]1C[C@H]2[C@@H]3CCC4=CC(=O)C=C[C@]4(C)[C@@]3(Cl)[C@@H](O)C[C@]2(C)[C@@]1(O)C(=O)CO	2	-2	88	121	97
Cc1nn(CC(=O)O)c(C)c1Cl	0	-2	100	126	102
CC(C)c1ccc(NC(=O)COC(=O)C2=COCCO2)cc1	4	-2[fluorescence artefact?]	90	107	84
CC(CC(=O)Nc1nc2ccccc2[nH]1)c1ccccc1 (centres undefined)	12	2	91	83	88
Cc1cccc(C)c1NC(=O)CN1CCNCC1	15	-4	94	122	103
OC(CNCC1CCCO1)Cn1c2ccc(Cl)cc2c2cc(Cl)ccc21 (centres undefined)	1	15	2.4*	57	2.2*
Cc1cc(C(F)(F)F)nc(SCC(=O)NC2=NC(=O)C(C)S2)n1 (centres undefined)	10	-4	92	105[fluorescence artefact?]	87
Cc1ccccc1Nc1nnc(SCC(=O)NCc2ccco2)s1	-4	85*[fluorescence artefact?]	105	51[fluorescence artefact?]	96
Cc1ccc(S(=O)(=O)N[C@H](C(=O)N2CCC(C(=O)N3CCC[C@H]3C(=O)O)CC2)C(C)C)cc1	10	-1[fluorescence artefact?]	96	117	91
CCOC(=O)/C(C#N)=C\C1=C(N2CCCC2)CC(C)(CC)OC1 (centres undefined)	13	0	113	107	88
O=C(O)C1CC=CCC1C(=O)NCc1cn2ccccc2n1 (centres undefined)	-3	9	102	88	90
Cn1nc([N+](=O)[O-])c2c(-c3nc4ccccc4s3)c(N)n(C3CCCCC3)c2c1=O	12	93*	73	4[fluorescence artefact?]	46
O=C(CSCc1ccc(F)cc1)N1CCN(c2ccccc2)CC1	-3	-10	92	116	102
Cc1cc(C(C)(C)C)cc(C)c1CC1=NCCN1	-14	1	107	78	100
CCOC(=O)/C(C#N)=C/C1=C(N2CCCC2)CC(C)(CC)OC1 (centres undefined)	7	-7	95	81	97
CCCc1c(OCCCCc2nn[nH]n2)ccc(C(C)=O)c1O	7	1	91	97	87
N[C@@H](C(=O)N[C@@H]1C(=O)N2C(C(=O)O)=C(Cl)CS[C@H]12)c1ccccc1	-2	0	103	95	98

Reformatted field by field: part of the list above.
> Cn1nc([N+](=O)[O-])c2c(-c3nc4ccccc4s3)c(N)n(C3CCCCC3)c2c1=O
  Smad3 FoxH1 inh: 12	ERa coact inh: 93*	Fibroblast inh: 73	ERa coact pot: 4[fluorescence artefact?]	HUVEC prolif 384: 46
> CCCc1c(OCCCCc2nn[nH]n2)ccc(C(C)=O)c1O
  Smad3 FoxH1 inh: 7	ERa coact inh: 1	Fibroblast inh: 91	ERa coact pot: 97	HUVEC prolif 384: 87
> CCOC(=O)/C(C#N)=C\C1=C(N2CCCC2)CC(C)(CC)OC1 (centres undefined)
  Smad3 FoxH1 inh: 13	ERa coact inh: 0	Fibroblast inh: 113	ERa coact pot: 107	HUVEC prolif 384: 88
> Cc1ccc(S(=O)(=O)N[C@H](C(=O)N2CCC(C(=O)N3CCC[C@H]3C(=O)O)CC2)C(C)C)cc1
  Smad3 FoxH1 inh: 10	ERa coact inh: -1[fluorescence artefact?]	Fibroblast inh: 96	ERa coact pot: 117	HUVEC prolif 384: 91

Seven structures out of the list, sorted by formula weight, smallest number first:
SMILES	Smad3 FoxH1 inh	ERa coact inh	Fibroblast inh	ERa coact pot	HUVEC prolif 384
Cc1cc(C(C)(C)C)cc(C)c1CC1=NCCN1	-14	1	107	78	100
O=C(O)C1CC=CCC1C(=O)NCc1cn2ccccc2n1 (centres undefined)	-3	9	102	88	90
CCOC(=O)/C(C#N)=C/C1=C(N2CCCC2)CC(C)(CC)OC1 (centres undefined)	7	-7	95	81	97
O=C(CSCc1ccc(F)cc1)N1CCN(c2ccccc2)CC1	-3	-10	92	116	102
Cc1ccccc1Nc1nnc(SCC(=O)NCc2ccco2)s1	-4	85*[fluorescence artefact?]	105	51[fluorescence artefact?]	96
N[C@@H](C(=O)N[C@@H]1C(=O)N2C(C(=O)O)=C(Cl)CS[C@H]12)c1ccccc1	-2	0	103	95	98
Cc1ccc(S(=O)(=O)N[C@H](C(=O)N2CCC(C(=O)N3CCC[C@H]3C(=O)O)CC2)C(C)C)cc1	10	-1[fluorescence artefact?]	96	117	91
